PrP 5UTR inh – inhibition of PrP 5' UTR reporter expression | cell-based PrP 5' UTR mRNA reporter, plate reader | inhibition, % (test concentration not listed) | 0.35% of 340,000 active | AID 488862, 2010;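 active = every replicate at 50% or more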;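 also: 0 = median of the neutral control wells; tested in H4 reporter cells; numbers are from one replicate; inactives centre near -14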
Sa ugtP lethal – growth inhibition of ugtP-null S. aureus, primary screen, RN4220 ugtP deletion, OD600; 16 h; some inactives read as strong as hits; growth inhibition, % (test concentration not listed); 0.54% of 330,000 active;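 active = z-score under -3 and OD600 up to 0.15 on both plates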;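 also: plate controls were untreated wells for no effect and antibiotic for full effect; wells of about 80 µL received 100 nL stock; the first replicate is given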
Sa RN4220 lethal – growth inhibition of S. aureus RN4220, primary screen, OD600 | 0.33% of 330,000 active | 16 h | AID 1259311, 2017 | inhibition, % (test concentration not listed);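 active = z-score of -3 or lower and OD600 up to 0.18 on both plates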;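 also: plate controls were untreated cells for no effect and reference antibiotic for full effect; stock transfer was 100 nL into about 80 µL; one replicate is shown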
Autofluor counter – compound fluorescence in toxin protease inhibitor counterscreen | compound autofluorescence counterscreen, microsphere flow cytometry; hits give high values | fluorescence intensity (concentration not given with the values) | 3.1% of 360,000 active;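 active = at least 3 SD above the mean of all compounds, about 16000 in these data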;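 also: 100 nL of 1 mM stock went into each well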
Mtb hypoxia inh – PubChem AID 1159583. M. tuberculosis hypoxia-regulated fluorescent reporter, fluorescence. fluorescence inhibition, % (no concentration beside the values). 0.1% of 300,000 active;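 active = 35 to 45% if threefold the growth effect, above 45% if 1.5-fold the growth effect; inactive = the rest, general growth blockers included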;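 also: wells of about 50 µL received 100 nL stock; 0% = vehicle wells and 100% = reference inhibitor wells; whole bacteria with a GFP reporter of the hypoxia response; strong numbers were not always called active; many hits fall short of the cut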
BJeLR viability – MLPCN primary cell-based screen for lethality selective to Ras in HRASV12 cells. BJeLR (HRASV12) viability, CellTiter-Glo ATP luminescence, 48 h; reference of the scale not given here. 0.17% of 300,000 active. inhibition, % (no concentration beside the values);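 active = replicate mean above 50%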;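 also: 50 nL library stock added to about 25 µL; numbers are from one replicate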
Mtb hypoxia inh growth – also measured in Mtb hypoxia inh; calls as there; growth inhibition, %; measured here: M. tuberculosis growth (absorbance);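 0% = vehicle and 100% = reference antibiotic; read after six days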
An asterisk follows results filed as active; · = no result given.

SMILES	PrP 5UTR inh	Sa ugtP lethal	Sa RN4220 lethal	Autofluor counter	Mtb hypoxia inh	Mtb hypoxia inh growth	BJeLR viability
CCCNC(=O)N(C)c1nncnc1C(=O)NC	-15	-5	6.5	4043	2	6	-11
COc1ccc(C(=O)NNC(=O)Nc2ccc(Cl)cc2)cc1	-17	6	0.1	4105	10	-4	3
CCN(CC)S(=O)(=O)c1ccc(NN=C(C#N)C#N)cc1	-14	-12	11	2008	·	·	5
CCOC(=O)C(C)C(C)=NNc1ccc([N+](=O)[O-])cc1[N+](=O)[O-] (configuration not stated)	·	1	5.0	·	-8	3	·
CCC(=O)NCCc1nc2cc(NC(=O)c3ccccc3Cl)ccc2n1C	-28	9	4.2	3145	-1	1	5
Cc1noc(C)c1CN1C(=O)c2ccc([N+](=O)[O-])cc2C1=O	-10	-2	3.7	3384	8	6	4
COC(=O)C(C)(C)NC(=O)c1cccs1	-6	2	1.5	9730	13	13	4
COc1ccc(N2CC(C(=O)NCc3ccccc3)CC2=O)cc1 (configuration not stated)	-14	2	-18	2314	·	·	7
C[C@H]1CN([C@@H](C)CO)C(=O)c2cccc(NS(=O)(=O)c3ccc(F)cc3)c2O[C@H]1CN(C)S(=O)(=O)c1cn(C)cn1	-49	3	3.6	3402	6	8	·
Nc1cc(=O)[nH]c(SCC(=O)NNC(=O)c2ccccc2)n1	-13	0	-1.4	4377	-8	3	-2
CCCCN1CNC(=S)N(c2ccccc2OCC)C1	-13	8	4.0	7728	0	2	9
CCn1c(COC(=O)CNC(=O)c2cc(OC)c(OC)c(OC)c2)nc2cc(S(=O)(=O)N(C)C)ccc21	-15	8	4.3	5107	2	8	5
Cc1ccc(NC(=O)c2cc(-c3ccccc3O)n[nH]2)cc1Cl	-43	2	0.7	4025	5	4	7
CN(C)c1oc(/C=C/c2ccccc2)nc1C#N	-52	3	9.2	2492	3	7	-5
COc1ccc(NC(=O)CSc2nc3ccccc3c(=O)n2C)cc1	-22	9	3.1	3679	12	3	-10
COCCCN1C(=O)CSC1=NS(=O)(=O)c1ccccc1	·	1	3.0	·	6	-5	·
O=C(NCc1ccco1)c1nn2c(C(F)(F)F)cc(-c3cccs3)nc2c1Cl	-22	4	11	12446	-1	-3	-5
Cn1cc(/C=C(\C#N)C(=O)Nc2cccc([N+](=O)[O-])c2)c2ccccc21	-13	-2	3.2	4321	-3	1	8
C/C=C(\C)C(=O)NCCN1C2=NC[C@H](Cc3ccc(O)cc3)N2C[C@@H]1Cc1ccc(OC)cc1	-7	·	·	3799	·	·	-14
COc1ccccc1NC(=O)NCCN1CCNC1=O	-11	6	4.0	·	9	4	-11
O=C(CCC1CCCN(Cc2cccc(Cl)c2)C1)NCc1ccccc1F (configuration not stated)	-20	5	2.2	5094	15	1	5
O=c1[nH]c2ccc(NC(=S)Nc3ccc(Cl)cc3)cc2[nH]1	-10	-12	-0.6	2317	·	·	1
O=C(/C=C/c1ccc(F)cc1)NC(=S)Nc1ccccc1C(=O)NC1CCCCC1	-17	-6	6.9	10444	4	8	-4
CCC(CC)C(=O)Nc1ccc(C)c(O)c1	-19	3	-1.4	2631	·	·	1
COc1ccc(N(C(=O)COc2ccccc2OC)S(=O)(=O)c2ccc(C)cc2)cc1	-18	10	3.2	2622	·	·	8
N#C/C(=C/c1ccccc1)C(=O)OCC(=O)Nc1ccccc1[N+](=O)[O-]	-6	3	6.3	3557	1	2	·
O=C1N/C(=N\N=Cc2cccnc2)SC1Cc1ccc(SC(F)F)cc1 (configuration not stated)	·	-10	0.6	·	5	10	·
O=C(CC(=O)c1ccccc1)Nc1ccc(Cl)cc1	-49	0	1.3	4237	1	11	5
O=C(NN=Cc1cc2c(cc1[N+](=O)[O-])OCO2)c1ccc2c(c1)OCO2	·	2	4.9	·	12	1	·
CNC[C@H](NC[C@@H](NCCCc1ccccc1)c1ccccc1)[C@H](C)O	-10	·	·	3428	·	·	5
O=C(O)CNC(=O)c1ccccc1Br	3	8	3.9	4437	4	-8	-9
O=C(CN1C(=O)NC2(CCc3ccccc3C2)C1=O)NCC(F)(F)F (configuration not stated)	-7	17	2.5	3142	1	-2	-3
COCCn1c(-c2ccc(F)cc2)nc2cccnc21	-17	6	0.4	3967	7	4	-5
CN(C)C(CNC(=O)c1cc(S(=O)(=O)N2CCOCC2)ccc1F)c1cccs1 (configuration not stated)	-26	2	1.0	5408	-4	7	·
CC1=C(C(=O)Nc2cc(-c3cccc(F)c3)[nH]n2)C2(CCCCC2)OC1=O	-6	0	2.2	6064	·	·	-3
COc1ccccc1CN1CCN(C(=O)COc2ccc3ccccc3c2)CC1	2	·	·	5743	·	·	2
COc1cccc(CNC(=O)CSc2nnc3c(n2)[nH]c2ccc(OC)cc23)c1	-21	16	2.6	5899	-8	3	-14
O=C(Cn1c(NCCCO)nc2ccccc21)c1ccco1	-17	2	4.1	11155	-2	-6	1
Cc1ccc(-n2ncc3c2CC(C)(C)CC3NC(=O)CCc2ccc(=O)[nH]n2)cc1 (configuration not stated)	-2	4	-4.7	4277	-2	7	6
CCCNC(=O)N1CCCC(C(N)=O)C1 (configuration not stated)	-6	-10	0.0	3325	-7	-4	-29
COc1ccc(CNC(=O)CN(c2cccc([N+](=O)[O-])c2)S(C)(=O)=O)cc1	-32	-20	-2.6	4483	-6	4	2
COc1cccc(N2C(N)=NC(N)=NC2(C)C)c1	-22	0	0.2	2381	·	·	79*
COC(=O)C1=C(C)NC(=O)C1(NC(=O)CN1CCCC1=O)C(F)(F)F (configuration not stated)	-6	2	4.4	4219	·	·	-6
O=C(NCCc1c[nH]c2ccccc12)c1ccccc1	-29	13	8.3	3978	6	6	-7
Cc1c(NC(=O)N(C)C)c(=O)n(-c2ccccc2)n1C	-24	6	-5.6	2614	12	0	11
O=S(=O)(c1ccc(F)c(F)c1)N1CCN(CCc2ccccc2)CC1	2	-5	-0.5	4217	-12	1	1
CCOc1cc(-c2sc(Nc3ccccc3)n[n+]2C)ccc1OC	-1	·	·	3400	·	·	-2
CCNC(=S)N(Cc1cc2cc(C)cc(C)c2[nH]c1=O)C1CCCC1	-16	-7	-6.8	2433	-4	-4	-4
CCOc1ccc(CN2CCNC(=O)C2CC(=O)O)cc1 (configuration not stated)	-6	6	5.9	3340	7	0	7
COC(=O)Oc1ccc(C=NNC(=O)CN(c2ccccc2Br)S(C)(=O)=O)cc1OC	·	5	1.9	·	11	-1	·
CN1C(=O)CC(N2CCC(C(N)=O)CC2)C1=O (configuration not stated)	4	4	10	2421	18	-23	2
CN1CCN(S(=O)(=O)c2ccc(N3CCN(C(c4ccccc4)c4ccccc4)CC3)nc2)CC1	-20	1	-3.5	4653	5	-5	2
CC1=C(C#N)C(/C=N/OCc2ccc(Cl)cc2)CC(=O)N1 (configuration not stated)	-6	·	·	3975	·	·	5
COc1ccccc1N1CCN(CC(=O)c2c[nH]c3ccccc23)CC1	0	6	3.8	3545	9	15	5
CCNC(=S)N(Cc1cccs1)Cc1cc2cc(OCC)ccc2[nH]c1=O	-10	-4	3.9	2379	-10	-4	-16
COc1ccc(/C=C2/C(=N)N3C(=NC2=O)Sc2cc(S(C)(=O)=O)ccc23)cc1OC	·	12	5.0	·	19	11	1
CC(C)(C)C(=O)ON=C(N)c1ccc(-c2csnn2)cc1	·	17	2.8	·	11	1	·
COc1ccc(C(C(=O)NCC2CCCO2)N(C(=O)c2snc(C(N)=O)c2N)c2ccccc2C)cc1OC (configuration not stated)	-19	4	-0.1	2991	-5	-8	4
NC(=O)c1cc2cc(Br)ccc2oc1=NCc1ccccc1	-19	7	0.0	2139	·	·	1
COc1ccc(Cl)cc1NS(=O)(=O)c1c(C)[nH]c(=O)[nH]c1=O	-19	2	2.1	3867	2	-3	-2
Continued.
SMILES	PrP 5UTR inh	Sa ugtP lethal	Sa RN4220 lethal	Autofluor counter	Mtb hypoxia inh	Mtb hypoxia inh growth	BJeLR viability
CNC(=S)N1N=C(c2cccs2)CC1c1ccc(OC)cc1 (configuration not stated)	-9	6	3.8	4151	2	-1	-16
O=[N+]([O-])c1ccccc1/C=C/CN1CCCCC1	-13	2	0.8	10005	1	6	-9
O=C(Nc1ccc(F)cc1)c1cccc2ccccc12	-28	2	6.3	3626	10	1	3
COc1cc(C2C(C(=O)c3cccs3)=C(O)C(=O)N2CCN2CCOCC2)ccc1OCCC(C)C (configuration not stated)	·	8	6.1	·	1	3	0
O=C1Nc2ccc(S(=O)(=O)NCCC3=CCCCC3)c3cccc1c23	-27	-4	2.9	2942	-10	0	8
CCNc1nc(NC(C)C)nc(Oc2ccc(OCCOc3ccc(C)cc3)nn2)n1	-6	-2	3.9	12392	2	-3	-4
CCCSc1nc2sc3c(c2c(=O)[nH]1)CC(C)CC3 (configuration not stated)	-70	1	6.8	4254	14	4	-3
CCCCC#Cc1ccc2c(c1)COc1c3ccccc3nn1-2	-9	4	5.3	3632	7	4	20
O=C(Nc1cccnc1)c1ccc([N+](=O)[O-])cc1Cl	1	3	1.6	2473	12	4	-6
CCOC(=O)C1CCCN(S(=O)(=O)CCNC(=O)c2ccc(F)cc2)C1 (configuration not stated)	-85	8	1.2	·	-8	-3	-1
CN(CC(=O)Nc1ccccc1Cl)C(=O)COC(=O)c1ccc(S(=O)(=O)C(F)F)cc1	-11	16	7.8	·	1	6	-8
CCN(C(=O)CSc1nnc(Cc2ccccc2F)n1N)C1CCS(=O)(=O)C1 (configuration not stated)	-16	-4	3.4	2780	1	-1	-13
CCOc1ccc(NS(=O)(=O)c2ccc(OC)c(C)c2)cc1	-11	16	6.8	8045	3	5	14
c1ccc(-c2nc(-c3ccco3)cs2)nc1	-52	6	3.5	22107*	8	9	7
CN(C)S(=O)(=O)c1cccc(COC(=O)c2cc([N+](=O)[O-])ccc2N2CCOCC2)c1	-2	5	6.9	5058	3	8	2
O=C(CSc1nnc(NC(=O)C2CC(=O)N(c3ccc(F)cc3)C2)s1)NCc1ccco1 (configuration not stated)	-1	·	·	5000	·	·	1

No new results follow: 17 of the compounds above.
SMILES	PrP 5UTR inh	Sa ugtP lethal	Sa RN4220 lethal	Autofluor counter	Mtb hypoxia inh	Mtb hypoxia inh growth	BJeLR viability
COc1ccc(CNC(=O)CN(c2cccc([N+](=O)[O-])c2)S(C)(=O)=O)cc1	-32	-20	-2.6	4483	-6	4	2
COc1cccc(N2C(N)=NC(N)=NC2(C)C)c1	-22	0	0.2	2381	·	·	79*
COC(=O)C1=C(C)NC(=O)C1(NC(=O)CN1CCCC1=O)C(F)(F)F (configuration not stated)	-6	2	4.4	4219	·	·	-6
O=C(NCCc1c[nH]c2ccccc12)c1ccccc1	-29	13	8.3	3978	6	6	-7
Cc1c(NC(=O)N(C)C)c(=O)n(-c2ccccc2)n1C	-24	6	-5.6	2614	12	0	11
O=S(=O)(c1ccc(F)c(F)c1)N1CCN(CCc2ccccc2)CC1	2	-5	-0.5	4217	-12	1	1
CCOc1cc(-c2sc(Nc3ccccc3)n[n+]2C)ccc1OC	-1	·	·	3400	·	·	-2
CCNC(=S)N(Cc1cc2cc(C)cc(C)c2[nH]c1=O)C1CCCC1	-16	-7	-6.8	2433	-4	-4	-4
CCOc1ccc(CN2CCNC(=O)C2CC(=O)O)cc1 (configuration not stated)	-6	6	5.9	3340	7	0	7
COC(=O)Oc1ccc(C=NNC(=O)CN(c2ccccc2Br)S(C)(=O)=O)cc1OC	·	5	1.9	·	11	-1	·
CN1C(=O)CC(N2CCC(C(N)=O)CC2)C1=O (configuration not stated)	4	4	10	2421	18	-23	2
CN1CCN(S(=O)(=O)c2ccc(N3CCN(C(c4ccccc4)c4ccccc4)CC3)nc2)CC1	-20	1	-3.5	4653	5	-5	2
CC1=C(C#N)C(/C=N/OCc2ccc(Cl)cc2)CC(=O)N1 (configuration not stated)	-6	·	·	3975	·	·	5
COc1ccccc1N1CCN(CC(=O)c2c[nH]c3ccccc23)CC1	0	6	3.8	3545	9	15	5
CCNC(=S)N(Cc1cccs1)Cc1cc2cc(OCC)ccc2[nH]c1=O	-10	-4	3.9	2379	-10	-4	-16
COc1ccc(/C=C2/C(=N)N3C(=NC2=O)Sc2cc(S(C)(=O)=O)ccc23)cc1OC	·	12	5.0	·	19	11	1
CC(C)(C)C(=O)ON=C(N)c1ccc(-c2csnn2)cc1	·	17	2.8	·	11	1	·

High-throughput results: PubChem BioAssay, several laboratories
